Assay outcomes as filed in PubChem.
GRP78 ERSR act – qHTS for Inducers of the Endoplasmic Reticulum Stress Response (ERSR) in Human Glioma: qHTS; U87-MG GRP78 promoter luciferase reporter, 16 h; Potency, µM, for inactives: top-dose activation, most hits filed as activators; 420,000 tested, 0.02% active; AID 602332, 2012; further: potency means the concentration at half of the fitted maximal effect; series mostly up to about 76 µM; % of control where 0% means no effect; nearly all actives have a fitted effect of over 35% in size
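ERSR induction read as luciferase luminescence (Bright-Glo, 10 min at room temperature) in stably transfected human U87-MG glioma cells exposed to compounds for 16 h, using GRP78 as sensor.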
LDHA block – qHTS assay for inhibitors of human lactate dehydrogenase; L-lactate dehydrogenase A chain (Homo sapiens), P00338; purified LDHA, NADH/diaphorase-resazurin fluorescence; hits give low values; activity change, % (values are at about 110 or 230 µM); 480,000 tested, 0.15% active; AID 1347041, 2019; in the data active means activity change below about -30%; inconclusive means mostly about -25% to -30%;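 further: plate controls were DMSO wells for no effect and wells without enzyme for full effect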
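Remaining NADH was detected by diaphorase (0.133 mg/mL) converting 37 µM resazurin to fluorescent resorufin, read at 0 and 20 minutes. The preceding 5-minute room-temperature reaction used 2 nM LDHA, 0.2 mM sodium pyruvate and 0.06 mM NADH at pH 7.4.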
Anesthetic bind – qHTS Assay for Identification of Novel General Anesthetics. 350,000 tested, 0.074% active. apoferritin/1-aminoanthracene competitive binding, fluorescence. Potency, µM (series often up to 77.5 µM), without a hit: at the highest dose activity change, negative = displacement, most hits filed as inhibitors. Ferritin light chain (Equus caballus), P02791; further: potency means the concentration at half of the fitted maximal effect; on the % scale 0 is the no-effect control and ±100 the full control effect; nearly all actives have a fitted effect of over 20% in size
Target sequence (P02791 2-175 limits assumed): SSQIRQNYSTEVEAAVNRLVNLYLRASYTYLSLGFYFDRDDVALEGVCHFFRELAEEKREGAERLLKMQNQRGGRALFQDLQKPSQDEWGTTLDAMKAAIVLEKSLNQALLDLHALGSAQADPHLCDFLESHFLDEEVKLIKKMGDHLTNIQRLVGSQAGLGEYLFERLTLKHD
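Read-out: endpoint 1-AMA fluorescence, excitation 380 nm and emission 535 nm, after compounds sit 10 min at room temperature with 10 uM horse-spleen apoferritin in 50% saturated 1-AMA/PBS. Values come from four-parameter Hill fits.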
An asterisk follows results filed as active; ? = inconclusive; nt = no result given; & = joins results of further samples; [ ] = remark or other dose. Unless noted, the call rests on the fitted dose curve; in most records, active means well fitted curve in the direction sought with a large enough effect; inconclusive means small, poorly fitted or top-dose-only effect, or another doubt; inactive means no such curve, though single readings can be large; an effect the other way counts as inactive or inconclusive. Not all compounds are listed; the hit share may differ from the screen's.

smiles | GRP78 ERSR act | LDHA block | Anesthetic bind
COc1ccc2cc([C@H](C)C(=O)O)ccc2c1 | -1%&-2%&-2%&-1%&-2% | -12 | -3%
COc1ccc(NC(=O)/C(C#N)=C/c2ccc(Br)o2)cc1 | -5% | -8 | 11%
CN(C)S(=O)(=O)c1ccc(NC(=O)Cc2ccc(S(=O)(=O)N3CCOCC3)s2)cc1 | -2% | 1 | ?
CN1CCc2cccc3c2[C@@H]1Cc1ccc(O)c(O)c1-3 | -6%&-3%&-4% | 17 | -1%
CC(C)(O)c1ccc2c(c1)CCC1C(C)(C(=O)O)CCCC21C (configuration not stated) | -1% | 0 | -13%
O=C(O)c1ccccc1Nc1cc(Cl)c2nonc2c1[N+](=O)[O-] | 2% | 2 | -13%
Cc1ccc(NC(=O)c2noc3c2CCC3)cc1C | -9% | 0 | ?
CC1=C(C(=O)O)N2C(=O)[C@@H](NC(=O)C(N)c3ccccc3)[C@H]2SC1 (some centres not stated) | -2% | nt | nt
C/C(CC(=O)Nc1cccc(Cl)c1Cl)=N\NC(=O)c1ccccc1C | 0% | 0 | ?
CC1=C(C(=O)O)N2C(=O)[C@@H](NC(=O)[C@@H](N)c3ccccc3)[C@@H]2SC1 | -1% | nt | 8%[29.3 µM]
Cc1cc(-c2csc(NC(=O)c3ccc(=O)[nH]c3)n2)c(C)n1Cc1ccco1 | -2% | 1 | -17%
CCN(CC)CCCNc1nc2cc(OC)c(OC)cc2c2nc(-c3cccnc3)nn12 | -6% | 5 | -17%
O=C(CSc1nnc(Nc2ccccc2F)s1)NCc1ccco1 | -1% | -1 | -16%
CCCCCc1nnc(NC(=O)Cc2cccs2)s1 | -2% | -4 | 2%
CCOC(=O)c1ccc(N2C(=O)c3[nH]nc(-c4ccc(OC)cc4)c3C2c2ccc(C)cc2)cc1 (configuration not stated) | 4% | 1 | -10%
Nc1nc2c(ncn2COCCO)c(=O)[nH]1 | -5%&-2%&-7%&-2%&3%&-4% | -5&1 | -2%
Cc1ccc(-n2c(C)cc(C3=NNC(=NC4CC4)SC3)c2C)cc1C | -6% | 2 | -3%
COc1cc(/C=C/c2sc3ccccc3[n+]2CCCS(=O)(=O)[O-])ccc1O | 9% | 14 | -1%
O=C(COC(=O)c1cnc(Cl)c(Cl)c1)NCc1ccco1 | -1% | -4 | -4%

Arranged by molar mass (lowest first): some entries from above
smiles | GRP78 ERSR act | LDHA block | Anesthetic bind
CCCCCc1nnc(NC(=O)Cc2cccs2)s1 | -2% | -4 | 2%
O=C(COC(=O)c1cnc(Cl)c(Cl)c1)NCc1ccco1 | -1% | -4 | -4%
Cc1cc(-c2csc(NC(=O)c3ccc(=O)[nH]c3)n2)c(C)n1Cc1ccco1 | -2% | 1 | -17%

Of the compounds above, five contain an aryl methoxy group:
smiles | GRP78 ERSR act | LDHA block | Anesthetic bind
COc1ccc2cc([C@H](C)C(=O)O)ccc2c1 | -1%&-2%&-2%&-1%&-2% | -12 | -3%
COc1ccc(NC(=O)/C(C#N)=C/c2ccc(Br)o2)cc1 | -5% | -8 | 11%
CCN(CC)CCCNc1nc2cc(OC)c(OC)cc2c2nc(-c3cccnc3)nn12 | -6% | 5 | -17%
CCOC(=O)c1ccc(N2C(=O)c3[nH]nc(-c4ccc(OC)cc4)c3C2c2ccc(C)cc2)cc1 (configuration not stated) | 4% | 1 | -10%
COc1cc(/C=C/c2sc3ccccc3[n+]2CCCS(=O)(=O)[O-])ccc1O | 9% | 14 | -1%

Part of the list above, showing only GRP78 ERSR act and LDHA block:
structure	GRP78 ERSR act	LDHA block
CN1CCc2cccc3c2[C@@H]1Cc1ccc(O)c(O)c1-3	-6%&-3%&-4%	17
CC(C)(O)c1ccc2c(c1)CCC1C(C)(C(=O)O)CCCC21C (configuration not stated)	-1%	0
